Assay outcomes: PubChem, several laboratories
PKD1 kinase inh – PKD1 (human) kinase inhibition; Q15139; PKD1 kinase fluorescence polarization assay; inhibition, %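 (about 10 µM by stock and volumes)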; 200,000 tested, 0.056% active;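 active = inhibition of 50% or more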;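 note: controls were vehicle for no effect and a reference inhibitor for full effect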
Target sequence (Q15139 whole entry, looked up): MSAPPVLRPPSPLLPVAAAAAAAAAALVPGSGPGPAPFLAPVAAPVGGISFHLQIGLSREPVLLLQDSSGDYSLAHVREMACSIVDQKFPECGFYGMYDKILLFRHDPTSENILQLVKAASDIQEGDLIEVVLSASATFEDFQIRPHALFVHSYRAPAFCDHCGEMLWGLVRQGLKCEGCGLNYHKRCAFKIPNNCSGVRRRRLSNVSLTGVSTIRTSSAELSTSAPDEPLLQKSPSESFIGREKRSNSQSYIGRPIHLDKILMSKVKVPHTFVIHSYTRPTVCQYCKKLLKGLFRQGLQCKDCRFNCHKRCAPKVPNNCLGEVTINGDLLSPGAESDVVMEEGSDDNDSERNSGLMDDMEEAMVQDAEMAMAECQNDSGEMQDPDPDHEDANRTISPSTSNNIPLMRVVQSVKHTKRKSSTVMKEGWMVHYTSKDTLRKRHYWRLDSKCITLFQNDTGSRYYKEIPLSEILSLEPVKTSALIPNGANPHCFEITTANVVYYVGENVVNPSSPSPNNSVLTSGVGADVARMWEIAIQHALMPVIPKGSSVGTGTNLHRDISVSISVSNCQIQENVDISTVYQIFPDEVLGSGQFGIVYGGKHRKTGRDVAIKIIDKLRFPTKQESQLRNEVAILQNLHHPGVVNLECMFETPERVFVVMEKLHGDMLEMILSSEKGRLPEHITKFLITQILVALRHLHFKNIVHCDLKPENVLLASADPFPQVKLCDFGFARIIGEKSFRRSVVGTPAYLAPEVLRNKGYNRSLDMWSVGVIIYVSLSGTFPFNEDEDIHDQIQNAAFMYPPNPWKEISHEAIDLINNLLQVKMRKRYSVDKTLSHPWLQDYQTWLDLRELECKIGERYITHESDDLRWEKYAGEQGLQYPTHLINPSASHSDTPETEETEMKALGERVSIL
RGS16-Gao – modulates binding between human RGS16 and Galphao | O15492+P09471 | 220,000 tested, 0.38% active | binding response (% of control), % at 10 µM | bead-based flow cytometry RGS16-Galphao binding, fluorescence; actives lie on both sides;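 active = below 25% or above 175%, edge rows of some plates excepted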;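 note: Galphao activated by GDP with aluminum fluoride before binding; 100% = wells without compound and 0% = beads without RGS; some results beyond the cut were filed as inactive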
HSV replic up – increases HSV replication in cells; AID 1956; HSV replication augmentation in cells, fold increase; maximum fold increase; 220,000 tested, 0.005% active;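 active = peak rise of 1.5-fold or more in the series; inconclusive = self-fluorescent or not available for retest; tested in PC3 cells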;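 note: first round at 10 µM; read as green reporter fluorescence; hits show the peak of a series up to 25 µM; 1 = signal of infected wells without compound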
GALR2 agonist – activates the human galanin receptor 2; GALR2-expressing cells, agonist activation read-out; activation, %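 (tested at 5 µM)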; AID 803; 140,000 tested, 0.48% active; O43603;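 active = above mean plus 3 SD of all compounds, about 5% in these data, not always enough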;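 note: 0% = vehicle buffer wells and 100% = reference agonist at full effect; tested in CHO reporter cells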
Insulin prom inh – TRM-6 insulin promoter activity inhibition | TRM-6 cells (human fetal islet line), insulin promoter-eGFP reporter, imaging; reporter expression induced with tamoxifen | inhibition, % at 2 µM | 130,000 tested, 0.9% active;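 active = inhibition above the mean plus 3 SD, with well images judged a real hit on visual review, cut at about 60% in these data, passing the limit was not always enough; inconclusive = inhibition over the cutoff but images rejected on review; inactive = inhibition not above the cutoff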
Insulin prom inh cell count – also measured in Insulin prom inh; calls as there; normalized cell count, %; measured here: cell count, toxicity; reference of the scale not given here;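 cells exposed to compound for 48 h; stained nuclei by imaging scaled within each plate; lower means fewer cells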
HSV replic up primary fold – second read-out of HSV replic up, no call of its own (marks repeat the call); fold increase; compound at 10 µM; measured here: primary screen fold increase 10 uM; tested in PC3 cells;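 GFP signal in the first replicate; 1 = infected wells without compound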
Active calls of the source: *; i = inactive; u = inconclusive; x = not tested or not shown; [ ] = dose if it differs, or a comment. Hits appear at their usual frequency; overall some 1.3% were active at least once.

SMILES | PKD1 kinase inh | RGS16-Gao | HSV replic up | HSV replic up primary fold | GALR2 agonist | Insulin prom inh | Insulin prom inh cell count
c1ccc(-c2ccccc2OCCCCN2CCCCCC2)cc1 | -4 | 104 | i | 0.77 | x | -95 | 35
O=C(CCc1ccc(S(=O)(=O)N2CCOCC2)cc1)OCc1nc2ccccc2s1 | 3 | 96 | i | 0.97 | -4.7 | 21 | 46
O=C(COC(=O)c1ccc(Cl)s1)c1cc2ccccc2o1 | 10 | 98 | i | 0.91 | -2.6 | 24 | 99
CCCn1nnc(NC(=O)c2ccc(Cl)cc2Cl)n1 | 0 | 99 | i | 0.98 | -1.2 | 36 | 96
CCOC(=O)N1CCN(CCC(=O)Nc2cc(C)ccc2OC)CC1 | -3 | 97 | i | 1.1 | x | x | x
Cc1cc(=O)[nH]c2cc(Cl)ccc12 | -7 | 98 | i | 0.81 | -0.6 | 5 | 127
CCOC(=O)CSc1nc2ccc(N3CCOCC3)cc2c(=O)n1Cc1ccc2c(c1)OCO2 | -7 | 101 | x | x | -1.2 | 4 | 126
C/C(=N/NC(=O)CNC(=O)c1ccccc1)c1ccc(C)cc1 | -7 | 100 | i | 0.93 | x | -24 | 77
COC(=O)C1C(=O)C=C(Nc2ccc(F)cc2)CC1c1ccc(OC)cc1 (configuration not stated) | 3 | 102 | i | 1 | 0.4 | -28 | 132
Cc1occc1C(=O)NCCCCc1ccccc1 | 4 | 98 | i | 0.95 | -2.8 | 7 | 45

Gathered by group, the entries above containing a furan ring, fused or not
SMILES | PKD1 kinase inh | RGS16-Gao | HSV replic up | HSV replic up primary fold | GALR2 agonist | Insulin prom inh | Insulin prom inh cell count
O=C(COC(=O)c1ccc(Cl)s1)c1cc2ccccc2o1 | 10 | 98 | i | 0.91 | -2.6 | 24 | 99
Cc1occc1C(=O)NCCCCc1ccccc1 | 4 | 98 | i | 0.95 | -2.8 | 7 | 45

Next section
SMILES | PKD1 kinase inh | RGS16-Gao | HSV replic up | HSV replic up primary fold | GALR2 agonist | Insulin prom inh | Insulin prom inh cell count
O=C(Nc1ccc(Cc2ccncc2)cc1)C1CCC(N2C(=O)C3CC=CCC3C2=O)CC1 (configuration not stated) | -4 | 100 | i | 0.95 | -1.0 | 7 | 118
COc1ccc(-c2csc(NC(=O)Cn3nc(C)cc3C)n2)cc1 | -11 | 185 | i | 0.98 | -2.4 | x | x
Cc1cccc(NC(=S)NC(=O)CC2CC(C)(C)OC2=O)c1 (configuration not stated) | 2 | 96 | i | 0.99 | x | -35 | 45
CCOC(=O)N1CCN(C(=O)CCSCCc2ccncc2)CC1 | -3 | 103 | i | 1 | 0.4 | 79* | 67*
CN(C(=O)CSc1nc2cc([N+](=O)[O-])ccc2n1-c1ccc(F)cc1)C1CCS(=O)(=O)C1 (configuration not stated) | 1 | 102 | i | 0.93 | -3.1 | -6 | 86
COc1ccc2c(c1)CCc1c(C(=O)Nc3ccn(Cc4ccc(C)cc4)n3)noc1-2 | -1 | 94 | i | 0.98 | -3.5 | x | x
N#C/C(=C/c1ccc(N2CCOCC2)o1)c1ccc(Cl)cc1 | -18 | 111 | x | x | -1.1 | -63 | 30
COc1ccc(CC(=O)Nc2ccc(C(C)=O)cc2)cc1 | -6 | 99 | i | 0.95 | x | 25 | 125
CC(C)n1c(SCC(=O)N2c3ccccc3CCc3ccccc32)nc2c1c(=O)n(C)c(=O)n2C | -8 | x | x | x | -1.2 | -107 | 52
Cc1sc2ccc3sccc3c2[n+]1C | 2 | 69 | i | 0.77 | x | x | x
CCN(CC)S(=O)(=O)c1ccc(NC(=O)COc2c(OC)cccc2OC)cc1 | -3 | 100 | i | 0.94 | -1.1 | x | x
O=C(c1ccc(N2C(=O)C3C4c5ccccc5C(c5ccccc54)C3C2=O)cc1)N1CCOCC1 (configuration not stated) | -2 | 109 | i | 0.77 | -0.4 | -3 | 88
Cc1ccc(C)c(N2CCN(S(=O)(=O)c3ccc4[nH]c(=O)c(=O)[nH]c4c3)CC2)c1 | -5 | 86 | i | 0.84 | -0.4 | x | x
C(=N\N1CCN(Cc2ccccc2)CC1)/c1ccc(-c2ccccc2)cc1 | -2 | 102 | i | 0.95 | x | -6 | 73
c1ccc2[nH]c(-c3nc4ccccc4[nH]3)nc2c1 | -3 | 90 | i | 0.91 | -0.2 | x | x
CC1CCN(C2CCN(C(=O)c3ccccc3F)CC2)CC1 | x | 104 | i | 1 | x | x | x
COc1ccc2nc(C)cc(SCC(=O)NNC(=O)COc3ccccc3)c2c1 | -2 | 117 | x | x | -1.8 | 27 | 129
CCCCN1C(=O)c2ccc(C(=O)NC3=NCCS3)cc2C1=O | -8 | 114 | i | 0.98 | 0.1 | -31 | 142
Cc1ccc(Nc2nnc(C)c(=O)[nH]2)cc1 | -4 | 100 | i | 0.93 | x | x | x
Cc1cc(C)n(C(=O)c2ccc(Cn3nc(C)c(Br)c3C)o2)n1 | -2 | 108 | i | 0.9 | -0.9 | -5 | 97
COC(=O)C1C(=O)CC(C)(O)C(C(=O)OC)C1/C=C/c1ccccc1 (configuration not stated) | 16 | 106 | i | 1 | -0.6 | x | x
COc1ccc(S(=O)(=O)N2CCCCC2)cc1NC(=O)Cc1c[nH]c2ccccc12 | -10 | 46 | i | 0.92 | 0.0 | 15 | 66
CC1(C)CC(=O)C(C=Nc2cc(C(=O)c3ccccc3)ccc2N)=C(O)C1 | 3 | 101 | u | x | x | x | x
O=[N+]([O-])c1cc(C(F)(F)F)ccc1N1CCCC(O)C1 (configuration not stated) | -6 | 101 | i | 0.88 | x | x | x
O=C(COc1ccc(Cl)cc1Cl)NCCCn1ccnc1 | -16 | 106 | i | 0.87 | -0.9 | x | x
Cc1nn(-c2ccccc2)c(C)c1/C=C/C(=O)OCC(=O)Nc1ncc(Cl)cc1Cl | -2 | 130 | i | 1 | -0.2 | 34 | 80
Cc1ccc(CCNC(=O)C2CCCN(S(=O)(=O)c3c(C)noc3/C=C/N(C)C)C2)cc1 (configuration not stated) | -5 | 107 | i | 1.1 | -2.3 | x | x
Cc1cnn(-c2cc(N/N=C/c3ccccc3Cl)ncn2)c1 | -8 | 101 | i | 0.89 | -3.6 | -43 | 105
COc1cc(-n2c(=O)c3ccccc3n(Cc3cccc(C)c3)c2=O)cc(OC)c1OC | 1 | 96 | i | 1 | x | 44 | 124
O=C(Cc1ccccc1)NC(c1ccco1)c1c(O)ccc2ccccc12 (configuration not stated) | -7 | 106 | i | 0.93 | x | -29 | 73

Some of these compounds in order of their number in GALR2 agonist, low to high:
canonical_smiles,GALR2 agonist
Cc1cnn(-c2cc(N/N=C/c3ccccc3Cl)ncn2)c1,-3.6
Cc1ccc(CCNC(=O)C2CCCN(S(=O)(=O)c3c(C)noc3/C=C/N(C)C)C2)cc1 (configuration not stated),-2.3
O=C(COc1ccc(Cl)cc1Cl)NCCCn1ccnc1,-0.9
Cc1nn(-c2ccccc2)c(C)c1/C=C/C(=O)OCC(=O)Nc1ncc(Cl)cc1Cl,-0.2
COc1ccc(S(=O)(=O)N2CCCCC2)cc1NC(=O)Cc1c[nH]c2ccccc12,0.0

Next section.
SMILES | PKD1 kinase inh | RGS16-Gao | HSV replic up | HSV replic up primary fold | GALR2 agonist | Insulin prom inh | Insulin prom inh cell count
O=C(CN(Cc1ccco1)C(=O)c1ccccc1)Nc1ccc(Cl)c(Cl)c1 | -12 | 105 | i | 0.86 | -2.0 | -33 | 112
O=C1CCC(=O)N1CC(=O)N1c2ccccc2Sc2ccccc21 | 3 | 100 | i | 0.61 | -0.9 | 21 | 125
COc1cccc(/C=N/n2c(SC)nnc2-c2ccccc2)c1O | -8 | 99 | x | x | -0.9 | 29 | 90
Cc1ccccc1NC(=S)N(Cc1ccccn1)Cc1ccccc1Cl | 10 | 98 | i | 1 | x | x | x
Cc1cc(C)cc(Oc2nc(C(F)(F)F)nc3ccccc23)c1 | 2 | 104 | i | 0.76 | -1.7 | 22 | 67
O=C(Nc1ccccc1-c1ccccc1)C1CCCN(c2ncccn2)C1 (configuration not stated) | -2 | 108 | i | 0.87 | -1.8 | 25 | 57
COC(=O)c1ccc(N2C(=O)CC(N(C)CCc3ccc(OC)c(OC)c3)C2=O)cc1 (configuration not stated) | 0 | 101 | i | 0.99 | -0.8 | -10 | 112
CCc1nnc(NC(=O)C2CCN(S(=O)(=O)Cc3ccccc3)CC2)s1 | -6 | 102 | x | x | -1.9 | 14 | 90
COc1ccc(-c2csc(Nc3ccccc3)[n+]2Cc2ccccc2)cc1 | -5 | 100 | i | 0.92 | x | x | x
COc1ccc(CCNC(=O)C(=O)NCc2ccc(C)cc2)cc1OC | -9 | 98 | i | 0.78 | -1.6 | -43 | 132
Cc1cccc2cc(COC(=O)C(C)(C)C)c(=O)[nH]c12 | 2 | 104 | i | 0.76 | -1.6 | 65 | 139
O=C(Nc1ccon1)c1sc2ccccc2c1Cl | -2 | 95 | i | 0.92 | -2.0 | -3 | 59
COc1ccccc1N1CCN(C(CNC(=O)c2ccc3c(c2)OCO3)c2cccnc2)CC1 (configuration not stated) | -7 | 110 | i | 0.99 | -1.0 | 0 | 92
CC1Cc2ccccc2N1C(=O)CSc1nnc(-c2ccc(S(=O)(=O)N3CCCC3)cc2)n1C (configuration not stated) | -8 | 104 | x | x | -1.2 | -62 | 70
CCCOC(=O)C1C2C=C[C@]3(CN(CCc4ccccc4)C(=O)[C@H]13)O2 (some centres not stated) | 10 | 111 | i | 0.99 | -1.6 | -7 | 38
COc1cccc(C(=O)O/N=C(\C)c2cnccn2)c1 | 1 | 94 | i | 1.3 | x | x | x
COc1ccc(OCC(=O)Nc2ccc3c(c2)nc2n3CCSC2)cc1 | -3 | 100 | i | 0.73 | -2.0 | x | x
O=C1c2ccncc2C(=O)N1Cc1cccc(Cl)c1 | 9 | 102 | i | 1.2 | -1.0 | 2 | 105
CCC(C)c1ccc(NC(=S)NC(C)C2CCCO2)cc1 (configuration not stated) | 1 | 96 | i | 1 | x | x | x
O=C(c1ccccc1)c1nc[nH]c1C(=O)Nc1ccccc1 | -15 | 365 | i | 0.9 | -0.9 | -3 | 171
CCOC(=O)c1c(C)[nH]c(C(=O)COC(=O)c2ccccn2)c1C | -4 | 101 | i | 0.84 | 1.2 | -39 | 67
COc1cc2ccnc(Cc3cccc(OC)c3OC)c2cc1OC | -2 | 111 | i | 0.84 | x | x | x
CCN(CC)S(=O)(=O)c1cccc(-c2n[nH]c(=S)n2/N=C/c2ccc(OC(F)F)cc2)c1 | -1 | 97 | i | 0.88 | 0.2 | x | x
CCS(=O)(=O)N1CCN(C(=O)c2ccco2)CC1 | 2 | 112 | i | 1.1 | -0.1 | -14 | 70
CC(C)(C)NC(=O)C(c1ccc(F)cc1)N(Cc1cccs1)C(=O)c1ccc(CN2CCOCC2)o1 (configuration not stated) | -7 | 95 | i | 1 | x | x | x
COc1cccc(NC(=O)CC2C(=O)NC3CCCCC3N2C(=O)c2ccc(F)cc2)c1 (configuration not stated) | -7 | 102 | i | 0.91 | -0.7 | -54 | 97
COc1cccc(CNc2cnc3ccccc3c2)c1O | 9 | 100 | i | 0.88 | -0.7 | -5 | 77
O=C(N/N=C/c1ccc(-c2ccc(Cl)c(C(=O)O)c2)o1)c1cc2c(ccc3ccccc32)o1 | x | 94 | i | 1.1 | x | x | x
CCOC(=O)N/N=C/c1ccc(F)cc1F | 3 | 113 | i | 1 | 0.4 | -6 | 137
Cc1[nH]nc2c1C(c1cc(Br)cs1)C(C#N)=C(N)O2 (configuration not stated) | -2 | 34 | i | 0.86 | -1.5 | 0 | 85
COc1cccc(NC(=O)CSCC(=O)Nc2ccccc2)c1 | 1 | 91 | i | 0.91 | -0.6 | 4 | 108
Cc1nn(C(C)C(=O)NC2C(=O)N3C(C(=O)O)=C(CSc4nnnn4C)CSC23)cc1Cl (configuration not stated) | -2 | 116 | i | 0.77 | x | x | x
COc1ccccc1NC(=O)CSc1nnc(Cc2cccn2C)n1CCc1ccccc1 | 6 | 99 | i | 0.83 | -0.6 | x | x
NC(=O)SC/C(=N\S(=O)(=O)c1ccccc1)Nc1ccccc1 | 15 | 418*[activator] | i | 0.89 | -0.6 | -36 | 94
CCOc1ccc(NC(=O)CN(C)c2ccc(S(=O)(=O)N(C(C)C)C(C)C)cn2)cc1OCC | -1 | 104 | i | 0.97 | -1.1 | 11 | 126
